High-throughput results from PubChem.
D2 agonist: Beta-Arrestin HTS for Positive Allosteric Modulators of the Human D2 Dopamine Receptor: Agonists; D(2) dopamine receptor (Homo sapiens), P14416; DiscoveRx PathHunter D2 beta-arrestin, luminescence, 90 min; 100% = 57 uM dopamine signal; activation, % (test concentration not listed); 0.084% of 360,000 active; in the data active = activation above about 40%; inconclusive = about 15% to 40%; inactive = below about 15%; also: compound concentration not given in the record; the text of the record calls up to 30% inactive
Target sequence (P14416 whole entry, looked up): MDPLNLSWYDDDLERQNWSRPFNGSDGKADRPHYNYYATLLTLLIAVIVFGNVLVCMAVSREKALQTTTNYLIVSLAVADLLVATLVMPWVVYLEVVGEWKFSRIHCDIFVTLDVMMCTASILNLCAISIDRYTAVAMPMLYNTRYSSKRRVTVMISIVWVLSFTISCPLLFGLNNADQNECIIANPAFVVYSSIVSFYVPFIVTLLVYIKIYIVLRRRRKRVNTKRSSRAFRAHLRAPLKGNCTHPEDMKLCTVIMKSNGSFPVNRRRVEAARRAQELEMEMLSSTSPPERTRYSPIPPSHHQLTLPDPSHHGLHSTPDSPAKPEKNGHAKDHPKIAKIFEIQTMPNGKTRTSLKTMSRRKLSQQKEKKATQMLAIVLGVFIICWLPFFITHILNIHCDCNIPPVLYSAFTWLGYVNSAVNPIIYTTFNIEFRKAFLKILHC
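Agonist mode: compounds alone added to overnight-plated D2 PathHunter cells for 90 min at 37 C, with 57 uM final dopamine (EC100) defining full response. Beta-arrestin recruitment detected by chemiluminescent reagent, read after 1 h at ambient temperature.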
D2 PAM: Beta-Arrestin HTS for Positive Allosteric Modulators of the Human D2 Dopamine Receptor: Potentiators; D(2) dopamine receptor (Homo sapiens), P14416; DiscoveRx D2 beta-arrestin cells, luminescence, 90 min; 100% = 57 uM dopamine signal; potentiation, % (test concentration not listed); 0.23% of 360,000 active; AID 624464, 2012; active = potentiation of 50% or more; inconclusive = 30% to 50%; inactive = 30% or less;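 also: compound concentration not given in the record; tested on top of an EC20 dose of dopamine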
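PathHunter D2 cells, attached overnight at 37 deg C, received compound in DMSO plus dopamine at EC20 (50 nM final) for 90 min at 37 deg C. Beta-arrestin recruitment was read as luminescence after 1 h with detection reagent at ambient temperature.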
TRPML1 agonist: qHTS for Agonists of the Human Mucolipin Transient Receptor Potential 1 (TRPML1); activation, % (no concentration beside the values); 0.12% of 410,000 active; TRPML1-expressing cells, Ca2+ dye fluorescence, FDSS; host cell line not named in the record; reference of the full effect not given here; Mucolipin-1 (Homo sapiens), Q9GZU1; in the data active = activation above about 50%; inconclusive = about 30% to 50%; inactive = below about 30%; also: 0% is about no effect; the text of the record puts the active cut at 80%
Target sequence (Q9GZU1 whole entry, looked up): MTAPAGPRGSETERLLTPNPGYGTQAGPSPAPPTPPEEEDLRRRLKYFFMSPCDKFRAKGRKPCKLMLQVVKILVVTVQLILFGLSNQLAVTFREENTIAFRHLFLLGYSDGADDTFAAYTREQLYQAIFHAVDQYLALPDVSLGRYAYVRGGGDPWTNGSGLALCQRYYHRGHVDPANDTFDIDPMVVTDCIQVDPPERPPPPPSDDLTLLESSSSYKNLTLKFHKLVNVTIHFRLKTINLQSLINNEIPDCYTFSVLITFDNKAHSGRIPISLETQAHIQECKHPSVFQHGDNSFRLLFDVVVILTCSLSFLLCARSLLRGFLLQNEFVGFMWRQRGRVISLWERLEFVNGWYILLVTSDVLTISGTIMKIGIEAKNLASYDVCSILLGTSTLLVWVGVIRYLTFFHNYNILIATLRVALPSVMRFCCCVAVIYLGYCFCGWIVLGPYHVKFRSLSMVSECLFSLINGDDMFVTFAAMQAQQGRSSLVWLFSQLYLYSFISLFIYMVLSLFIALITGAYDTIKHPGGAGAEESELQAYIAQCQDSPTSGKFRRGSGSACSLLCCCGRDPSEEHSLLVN
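Tet-induced TRPML1-DL cells, 1,500 per well, cultured overnight, were loaded with a no-wash Ca2+ dye for 45–90 min. Calcium fluorescence was recorded on the FDSS for 110 s after compound addition, before the EC80 agonist (4 uM 54-4) was added.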
CtBP-E1A blk: qHTS Assay for Inhibitors of the CtBP/E1A Interaction; CtBP / adenovirus E1A interaction (AlphaScreen); AlphaScreen GST-E1A/His-CtBP binding, 1536-well; stronger effect = lower value; control for the full effect not named in the record; activity change, % (concentration not given with the values); 0.49% of 340,000 active; AID 651724, 2012; in the data active means activity change below about -65%; inconclusive means about -30% to -65%; inactive means above about -30%; also: % is scaled to controls: 0 for no effect and ±100 for the full control effect
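Steps: dispense buffer (Tris pH 8.0, NaCl 300 mM, TCEP 1 mM, BSA, Tween 20); add 5X protein mix (GST-E1A, His-CtBP, 125 nM each); pin 23 nL compound; 2 h at 37 °C, dark; add 5X beads (50 ug/mL); 1 h; read.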
Six1-Eya2 inh: qHTS Assay for Inhibitors of the Six1/Eya2 Interaction. activity change, % (no concentration beside the values). AlphaScreen GST-Six1/His-Eya2 binding, biochemical; stronger effect = lower value; control for the full effect not named in the record. 0.56% of 360,000 active. AID 651725, 2012. Homeobox protein SIX1 (Homo sapiens) + Protein phosphatase EYA2 (Homo sapiens), …; in the data active = activity change below about -65%; inconclusive = about -30% to -65%; inactive = above about -30%; also: % is scaled to controls: 0 for no effect and ±100 for the full control effect; compound concentration not given in the record
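AlphaScreen luminescence read after one hour at 37 °C in darkness. Pin-transferred compounds met GST-Six1 and His-Eya2 protein (5X stock 250 nM/500 nM) plus glutathione donor and Ni-chelate acceptor beads (5X, 50 ug/mL).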
PINK1 modulator: A Quantitative High throughput Screen to Identify Chemical Modulators of PINK1 Expression; PINK1 immunofluorescence, high-content cytometry, 24 h; Potency, µM (doses to about 76.6 µM), for inactives: top-dose activation (PINK1 increase), most hits filed as activators; 0.2% of 410,000 active; AID 624263, 2012; active = well fitted activation curve with a large enough effect; inconclusive = small, poorly fitted or top-dose-only effect; inactive = flat fitted curve, though single readings scatter; cell line not stated here;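 also: potency is read from the fitted curve at half-maximal effect; % of control where 0% means no effect; nearly all actives have a fitted effect of over 65% in size; a mitochondrial uncoupler was the plate control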
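A stable cell line was treated with compounds at 5 concentrations for 24 hours, with CCCP as control. PINK1 levels and mitochondrial localization were measured by immunofluorescence with mitochondrial, cell and nuclear markers after fixation, read by laser-scanning cytometry.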
Numbers without * were called inactive; ? = inconclusive; · = no result given; & = joins results of further samples; [ ] = remark or other dose.

Every second line gives: D2 agonist | D2 PAM | TRPML1 agonist | CtBP-E1A blk | Six1-Eya2 inh | PINK1 modulator
[1] COc1cc(C(=O)N2CCCCC2c2cc(C(=O)Nc3ccccc3Cl)no2)cc(OC)c1C (stereo not given)
 : -4.3 | -11.4 | -0.2 | -8.9 | -2.6 | 2.1%
[2] Cc1ccc(S(=O)(=O)N2CCCC(C(=O)NCCCN3CCCCC3C)C2)cc1 (stereo not given)
 : -3.9 | -17.8 | -0.3 | 2.1 | 0.2 | 2.8%[38.3 µM]
[3] CC(=O)c1ccc(NC(=O)CCc2nnc3ccc(N4CCC5(CC4)OCCO5)nn23)cc1
 : -1.6 | -1.3 | -0.6 | 7.5 | -0.1 | -0.3%
[4] Cc1ccc(NCCC(=O)c2ccccc2)cc1Cl
 : -1.0 | -7.1 | 3.0 | 0.0 | -0.7 | 3.3%
[5] CCOC(=O)C1=C(C)OC(N)=C(C#N)C1c1ccc(OC)c(CSc2ccccn2)c1 (stereo not given)
 : -3.4 | -3.3 | 2.4 | · | -0.1 | 4.4%
[6] Cc1cc(N2C(=O)C(O)=C(C(=O)c3ccc(C)o3)C2c2ccc(OCc3ccccc3)cc2)no1 (stereo not given)
 : -4.9 | -6.5 | 0.2 | -6.4 | -18.6 | 0.3%
[7] O=C1N/C(=C\c2ccccc2)c2ccccc21
 : -3.3 | -10.5 | 0.4 | 1.6 | -1.6 | ?
[8] Cn1ccnc1C(=O)c1ccc(NN)c([N+](=O)[O-])c1
 : -1.7 | 3.3 | -0.6 | -8.5 | -4.7 | 1.0%
[9] COc1ccc([N+](=O)[O-])cc1NC(=O)Nc1ccc(OC)c(OC)c1
 : -3.3 | -11.9 | -0.2 | -4.8 | -15.1 | 3.4%
[10] CC(C)[C@H](N)c1cn([C@@H](CO)C(=O)N2CCNCC2)nn1
 : -1.8 | -7.0 | -0.4 | 4.0 | 3.8 | 0.4%
[11] COCC(=O)Nc1cc(OC)cc(OC)c1
 : -1.3 | -16.8 | 0.9 | -2.1 | -4.3 | 2.3%
[12] Brc1ccc(-c2nnc3c4ccccc4nc(N4CCOCC4)n23)cc1
 : -2.3 | -10.1 | -0.3 | 5.3 | -0.5 | 1.0%
[13] CCNC(=S)N/N=C/c1cc(Br)cc(Br)c1OC
 : 0.2 | -20.1 | 2.4 | -1.2 | -4.0 | ?
[14] COc1ccc(-n2c(N)c(C(=O)Nc3c(C)n(C)n(-c4ccccc4)c3=O)c3nc4ccccc4nc32)cc1
 : 1.8 | -12.9 | 1.6 | -1.9 | -0.9 | 6.8%
[15] Cc1cc2nc(-c3cccc(Cl)c3)c(Cc3ccccc3)n2c(C)c1Br
 : -3.8 | -9.4 | 1.4 | -4.7 | 3.4 | 4.4%
[16] COc1ccc(Cl)cc1C(=O)NNC(=S)NC1CCCCC1
 : 2.4 | -9.9 | 0.0 | 12.0 | 12.7 | 1.2%
[17] Cc1cc(-c2ccccc2)nc(N2CCC(C(=O)NC(C)C)CC2)n1
 : -1.8 | -15.6 | 0.9 | 4.4 | 5.4 | 11.3%[38.3 µM]
[18] Cc1ccc(C(=O)Nc2nnc(SCC(=O)N3CCCc4ccccc43)s2)cc1
 : -2.8 | -11.6 | 1.2 | 5.7 | 1.1 | 2.2%
[19] Cc1cccc(C)c1NC(=S)NC(=O)c1ccccc1F
 : 0.5 | -0.4 | 3.7 | 1.7 | -3.2 | 8.5%
[20] O=C1CS/C(=C\[N+](=O)[O-])N1c1ccccc1
 : -5.1 | -5.9 | 1.5 | -18.8 | -4.0 | -1.9%
[21] Cc1ccc(NC(=O)CN2C(=O)NC(Cc3ccccc3)C2=O)cc1 (stereo not given)
 : -2.2 | -4.8 | -0.1 | 9.9 | 4.0 | 1.6%
[22] C[C@H]1CN([C@@H](C)CO)C(=O)c2cc(C3=CCCCC3)cnc2O[C@@H]1CN(C)C(=O)Cc1ccccc1
 : 10.6 | -1.6 | -0.4 | 0.0 | 7.8 | 0.6%
[23] COc1cccc(C(O)c2nc(-c3cc4ccccc4o3)cs2)c1 (stereo not given)
 : -2.0 | -6.5 | -0.1 | 2.0 | 7.1 | 3.0%
[24] Cc1cc(Cl)ccc1OCc1nc(-c2ccc(O)cc2)n[nH]1
 : -0.6 | -6.5 | 4.0 | -12.3 | -0.4 | 2.1%
[25] CN(C)C(/C=C/Nc1ccc(F)cc1F)=C(C#N)C#N
 : 4.4 | 10.5 | 0.3 | 11.5 | 0.9 | ·
[26] COc1ccc(NC(=O)Cn2c(=O)n(CC3CCCO3)c(=O)c3cc(OC)c(OC)cc32)cc1OC (stereo not given)
 : -2.6 | -3.6 | -0.8 | -11.2 | 9.1 | 2.6%
[27] CCOC(=O)[C@]12CCC=C1N(Cc1ccc3c(c1)OCO3)C(=O)[C@H](CC(=O)NCCc1ccccc1OC)C2
 : · | · | 0.0 | 0.6 | -8.2 | -1.0%
[28] O=C(NCCCN1CCCCC1)c1ccc2c(c1)NC(=O)c1ccccc1S2
 : 1.4 | -9.0 | 0.2 | · | 2.1 | 1.5%
[29] COC(=O)Cn1c(=NC(=O)CSCC(=O)NC2CCCCC2)sc2cc(OC)ccc21
 : -0.4 | -12.9 | 1.7 | -4.7 | 2.1 | 6.0%
[30] O=C(Cc1ccccc1)NCC(=O)OCC(=O)c1ccccc1Cl
 : -4.3 | -11.1 | -0.7 | 5.5 | 2.3 | 4.9%

(listing goes on)
entry | smiles | D2 agonist | D2 PAM | TRPML1 agonist | CtBP-E1A blk | Six1-Eya2 inh | PINK1 modulator
31 | OC(COc1ccc(Br)cc1)CN1CCC(Cc2ccccc2)CC1 (stereo not given) | -0.5 | -30.3 | -0.1 | 0.2 | -5.3 | 1.5%
32 | CCOc1ccc(/C=N/n2c(SC)nnc2-c2ccccc2)cc1OCC | 0.2 | -1.4 | 5.4 | 4.5 | 4.7 | -2.4%
33 | COCCCN(C(=O)CC1OC(=O)c2ccccc21)c1c(N)n(Cc2ccccc2)c(=O)[nH]c1=O (stereo not given) | 1.1 | -17.4 | -0.3 | -6.1 | 6.6 | 1.9%
34 | O=C1C=C(c2ccc(Oc3ccccc3)cc2)C[C@@H](c2ccc(F)cc2)C1 | -2.6 | -14.2 | 0.9 | 2.5 | 6.5 | 4.0%
35 | COc1ccc(/C=C(/NC(=O)c2ccccc2)C(=O)NCC2CCCO2)cc1 (stereo not given) | 2.0 | -0.3 | 0.9 | 8.8 | 3.7 | -1.1%
36 | O=C1CCC([N+](=O)[O-])C(c2ccccc2F)N1 (stereo not given) | -6.6 | -7.4 | · | 0.4 | -21.4 | 2.9%
37 | Cc1nn(-c2ccc(F)cc2)c(C)c1NS(=O)(=O)c1ccc(Cl)cc1 | 6.1 | -45.8 | 0.3 | 11.0 | ? | -0.4%
38 | CCOC(=O)[C@]12CCCC=C1N(Cc1ccco1)C(=O)[C@H](CC(=O)NCc1cccc3ccccc13)C2 | · | · | -0.6 | -0.8 | -7.6 | 1.0%
39 | Cc1cccc(CS(=O)(=O)Cc2ccc(C(=O)NCC3CCCO3)o2)c1 (stereo not given) | 4.3 | -23.6 | -0.1 | 10.2 | -5.2 | 1.2%
40 | O=C(O)C1CCC(N2C(=O)c3cccc([N+](=O)[O-])c3C2=O)CC1 (stereo not given) | 8.4 | 0.6 | -0.3 | 7.7 | -4.9 | -1.4%
41 | C[C@@H]1CN([C@H](C)CO)C(=O)Cc2cc(NS(=O)(=O)c3ccc(F)cc3)ccc2O[C@H]1CN(C)Cc1ccc(C(=O)O)cc1 | -0.5 | 2.9 | -0.9 | 0.5 | -1.6 | 2.4%
42 | Cc1cc(C)c(S(=O)(=O)N(C)CC(=O)NC2CCCC2)c(C)c1 | -2.5 | -9.4 | -0.1 | 7.0 | 4.6 | 1.0%[38.3 µM]
43 | CCSc1ncc(/C=N/Nc2ccc([N+](=O)[O-])cc2)n1C | 2.4 | 8.4 | 4.1 | -0.2 | -8.2 | 10.0%
44 | Cc1ccsc1C1C(C#N)=C(N)OC2=C1C(=O)CCC2 (stereo not given) | -1.9 | -6.9 | 1.2 | -5.5 | -2.0 | 1.2%
45 | CCc1ccc(NC(=O)C2CCN(S(=O)(=O)c3cnc[nH]3)CC2)cc1 | -1.9 | -1.2 | -0.5 | 2.7 | 4.0 | -1.8%
46 | CCOC(=O)CC(=O)CSc1nc2sc(C)cc2c(=O)n1Cc1ccco1 | 5.2 | -6.9 | 0.6 | 1.2 | -4.9 | 22.4%[38.3 µM]
47 | CCN(C(=O)COC(=O)c1ccc(Cl)cc1N)C1CCCCC1 | -5.0 | -7.1 | -0.1 | 3.2 | -1.5 | 0.7%
48 | Cc1cc2c(cc1S(=O)(=O)N(C)Cc1ccccc1)OCC(=O)N2 | 0.8 | 3.7 | 1.0 | 1.7 | 3.0 | 5.2%
49 | Cc1ccc(S(=O)(=O)N(C)C)cc1NC(=S)N1CCN(Cc2ccc3c(c2)OCO3)CC1 | -6.1 | -8.0 | 0.6 | · | -11.8 | 1.6%
50 | COc1ccc(CCN(C)C/C=C/c2ccccc2)cc1OC | -1.5 | -6.8 | 0.5 | -6.1 | -7.1 | -1.2%
51 | O=C1CCC[C@@H]2C[C@@]3(C[C@@H]4CCN1[C@H]24)Nc1cc(Cl)ccc1NC3=NC1CCCCC1 | 0.5 | -112.5 | -0.5&-0.6 | 1.2 | -3.9 | 1.9%
52 | Cc1ccc(CN2CCSCC2)c(C)c1 | 0.1 | -1.9 | -1.1 | · | -2.9 | 2.1%

Five entries from above, sorted by count of non-hydrogen atoms, largest number first.
entry | smiles | D2 agonist | D2 PAM | TRPML1 agonist | CtBP-E1A blk | Six1-Eya2 inh | PINK1 modulator
41 | C[C@@H]1CN([C@H](C)CO)C(=O)Cc2cc(NS(=O)(=O)c3ccc(F)cc3)ccc2O[C@H]1CN(C)Cc1ccc(C(=O)O)cc1 | -0.5 | 2.9 | -0.9 | 0.5 | -1.6 | 2.4%
34 | O=C1C=C(c2ccc(Oc3ccccc3)cc2)C[C@@H](c2ccc(F)cc2)C1 | -2.6 | -14.2 | 0.9 | 2.5 | 6.5 | 4.0%
39 | Cc1cccc(CS(=O)(=O)Cc2ccc(C(=O)NCC3CCCO3)o2)c1 (stereo not given) | 4.3 | -23.6 | -0.1 | 10.2 | -5.2 | 1.2%
48 | Cc1cc2c(cc1S(=O)(=O)N(C)Cc1ccccc1)OCC(=O)N2 | 0.8 | 3.7 | 1.0 | 1.7 | 3.0 | 5.2%
44 | Cc1ccsc1C1C(C#N)=C(N)OC2=C1C(=O)CCC2 (stereo not given) | -1.9 | -6.9 | 1.2 | -5.5 | -2.0 | 1.2%
